Source: PubChem BioAssay
TRPML1 ag – qHTS for Agonists of the Human Mucolipin Transient Receptor Potential 1 (TRPML1) | Mucolipin-1 (Homo sapiens), Q9GZU1 | TRPML1-expressing cells, Ca2+ dye fluorescence, FDSS; host cell line not named in the record; reference of the full effect not given here | activation, % (no concentration beside the values) | hit rate 0.12% among 410,000; in the data active = activation above about 50%; inconclusive = about 30% to 50%; inactive = below about 30%; note: 0% is about no effect; the text of the record puts the active cut at 80%
Target sequence (Q9GZU1 whole entry, looked up): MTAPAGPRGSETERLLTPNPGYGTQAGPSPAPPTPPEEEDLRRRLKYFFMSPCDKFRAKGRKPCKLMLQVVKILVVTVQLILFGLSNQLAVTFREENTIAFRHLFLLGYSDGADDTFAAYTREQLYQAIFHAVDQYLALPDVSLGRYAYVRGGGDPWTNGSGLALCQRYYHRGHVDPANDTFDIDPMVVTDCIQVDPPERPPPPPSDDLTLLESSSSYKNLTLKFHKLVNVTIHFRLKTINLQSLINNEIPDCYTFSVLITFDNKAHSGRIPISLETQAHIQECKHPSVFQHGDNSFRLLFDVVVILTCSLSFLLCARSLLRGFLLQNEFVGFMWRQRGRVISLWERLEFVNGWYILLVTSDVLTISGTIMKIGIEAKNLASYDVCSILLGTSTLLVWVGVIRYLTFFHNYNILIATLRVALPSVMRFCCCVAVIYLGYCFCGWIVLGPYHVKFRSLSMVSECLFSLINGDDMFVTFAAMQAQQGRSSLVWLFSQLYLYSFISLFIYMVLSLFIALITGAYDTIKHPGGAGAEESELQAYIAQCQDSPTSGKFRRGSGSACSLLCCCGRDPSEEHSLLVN
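Cells: TRPML1-DL, 1X Tet inducer, ~16 h at 37 degrees C/5% CO2. Dye: ABD Ca8 no-wash + quencher, 45-90 min RT. Read: 10 s baseline, compound add, 110 s agonist phase; 54-4 EC80 (4uM final), 110 s antagonist phase.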
TRPML1 inh – qHTS for Inhibitors of the Human Mucolipin Transient Receptor Potential 1 (TRPML1); Mucolipin-1 (Homo sapiens), Q9GZU1; TRPML1-inducible cells, Ca2+ dye fluorescence, FDSS; active compounds read low; inhibition of EC80 agonist-evoked calcium signal; activity change, negative = inhibition, % (no concentration beside the values); hit rate 0.02% among 390,000; AID 624415, 2012; in the data active means activity change below about -50%; inconclusive means about -30% to -50%; inactive means above about -30%;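 note: stimulus is agonist 54-4 at its EC80 concentration; % is set by controls: 0 for no effect and ±100 for the full control effect; compound concentration not given in the record; the text of the record puts the active cut at -80%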
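Calcium fluorescence in TRPML1-DL cells induced overnight with Tet: a 110 s read after compound pin addition, then a 110 s antagonist read after challenge with 54-4 at 4 uM final (EC80).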
ClpP mod – qHTS Assay for Activators of ClpP; AID 651965, 2013; purified B. subtilis ClpP, FRET peptide cleavage, 20 min; Potency, µM (doses to about 57.5 µM), for inactives: top-dose activity change, negative = active; ATP-dependent Clp protease proteolytic subunit (Bacillus subtilis (strain 168)), P80244; hit rate 1.9% among 340,000; active = well fitted falling curve with a large enough effect; inconclusive = small, poorly fitted or top-dose-only effect; inactive = no such curve, though single readings can be large or run the other way; note: potency is the fitted concentration of half-maximal effect; the source files actives as falling curves though it sought activators and does not explain the sign; nearly all actives have a fitted effect of over 65% in size; many hits overshoot -100%
Target sequence (P80244 whole entry, looked up): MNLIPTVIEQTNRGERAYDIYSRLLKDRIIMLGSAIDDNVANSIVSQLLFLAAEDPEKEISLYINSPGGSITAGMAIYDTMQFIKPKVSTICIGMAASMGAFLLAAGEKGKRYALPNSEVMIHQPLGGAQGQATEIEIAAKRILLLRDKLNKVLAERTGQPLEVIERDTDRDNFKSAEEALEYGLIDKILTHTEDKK
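Buffer: 100 mM Tris/HCl pH8, 100 mM KCl, 0.05% low protease BSA, 2.5% glycerol, 0.01% Tween-20. ClpP 10 microg/mL final; 20 min RT; delta FRET normalized to ADEP and DMSO controls.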
gsp ag – qHTS for Agonist of gsp, the Etiologic Mutation Responsible for Fibrous Dysplasia/McCune-Albright Syndrome: qHTS; AID 624287, 2012; hit rate 0.13% among 340,000; Potency, µM (top dose mostly 76.9 µM), for the others: at the highest dose activation (cAMP increase), hits mostly activators; gsp mutant cells, cAMP HTRF, 30 min; control for the full effect not named in the record; active = well fitted activation curve with a large enough effect; inconclusive = small, poorly fitted or top-dose-only effect, or another doubt; inactive = no such curve, though single readings can be large or run the other way; cell line not stated here;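 note: phosphodiesterase inhibitor Ro 20-1724 added with compounds to block cAMP breakdown; potency is the fitted concentration of half-maximal effect; nearly all actives have a fitted effect of over 60% in size; about a fifth of the inactives were tested at one dose only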
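Cells in DMEM/10% FBS with G418 were pretreated with compounds in DMSO plus […] (300 uM stock) for 30 min at 37C. cAMP was measured by HTRF (cAMP-d2 plus anti-cAMP antibody-K) after 30 min at room temperature.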
Menin-MLL FL inh – qHTS Assay for Inhibitors Targeting the Menin-MLL Interaction in MLL Related Leukemias: Competition With Fluorescein Labeled MLL-derived Peptide. FP activity change, % at 61.4 µM. 290,000 tested, under 10 active. Fluorescence polarization, fluorescein-MLL peptide displacement from menin; inconclusive = falling polarisation curve, or a change in total fluorescence; inactive = total fluorescence flat and polarisation flat or rising; no compound was filed as active; the % refers to the polarisation; negative = inhibition;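 note: % of control where 0% means no effect; inhibitors lower the polarisation; unlabelled MLL peptide was the positive control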
gsp antag – qHTS for Antagonists of gsp, the Etiologic Mutation Responsible for Fibrous Dysplasia/McCune-Albright Syndrome: qHTS; gsp-mutant cells, cAMP HTRF, 30 min; control for the full effect not named in the record; Potency, µM (doses to about 76.9 µM), without a hit: at the top dose activity change, negative = inhibition, usual class: inhibitors; hit rate 0.4% among 340,000; AID 624288, 2012; active = falling curve of any shape with a large fitted effect; inconclusive = falling curve, mostly with a smaller effect; inactive = flat or rising curve; cell line not stated here;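 note: intracellular cAMP measured with PDE inhibitor Ro 20-1724 present during compound exposure; potency is the fitted concentration of half-maximal effect; % is set by controls: 0 for no effect and ±100 for the full control effect; nearly all actives have a fitted effect of over 65% in size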
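Cells, 2000/well, grown 16–24 h in DMEM 10% FBS with 0.5 mg/ml G418, then compounds plus […] (300 uM addition stock), 30 min at 37C. cAMP read by HTRF (cAMP-d2 and anti-cAMP antibody-K in lysis buffer) after 30 min RT.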
* marks the source's active call; other numbers are inactive results; ? = inconclusive; nt = not tested or not shown; & = joins results of further samples; [ ] = remark or other dose.

SMILES	TRPML1 ag	TRPML1 inh	ClpP mod	gsp ag	Menin-MLL FL inh	gsp antag
CC(CNC(=O)CCCn1ncn2c(cc3occc32)c1=O)c1ccccc1 (stereo unspecified)	-1.2	-5	-0.7%	3%	2.6	-1%
COc1ccc(CCN2CC(C(=O)OCC(=O)NC(C)c3cccc(Cl)c3)CC2=O)cc1OC (stereo unspecified)	0.7	-2	1.6%	4%	nt	-19%
COc1ccc(C)cc1NC(=O)Nc1ccncc1	-0.4	-5	0.8%	?	nt	9%
O=C(Nc1ccccc1)OCC1CCCN2CCCCC12 (stereo unspecified)	0.3	7	0.1%	16%	-1.7	9%
CCOC(=O)C1CCCN(C(=O)COC(=O)C2=COCCO2)C1 (stereo unspecified)	-0.2	-8	-0.3%	0%	7.4	13%
Cc1cc(C)c(NC(=O)Cn2c(=O)n(Cc3ccco3)c(=O)c3ccc(C(=O)NC4CCCC4)cc32)c(C)c1	0.9	34	-6.7%	nt	nt	nt
COCCN(C(=S)Nc1c(C)cc(C)cc1C)C(C)c1cccs1 (stereo unspecified)	0.0	13	1.4%	26%	-3.6	-15%
Nc1c(NCc2ccccc2)c(=O)c1=O	0.4	-18	nt	14%[15.4 µM]	1.2	-4%
O=[N+]([O-])c1cccc(C(=S)N2CCN(c3ccc(F)cc3)CC2)c1	0.6	-10	nt	22%	-0.8	-1%
CCOc1ccc(/C(O)=C/C(=O)C(=O)Nc2ccc(S(=O)(=O)NC(C)=O)cc2)cc1	0.5	3	-2.3%	12%	4.5	3%
COc1ccc(Cl)cc1S(=O)(=O)NC(C)C(=O)NCCCn1ccnc1 (stereo unspecified)	-0.1	2	-1.5%	-14%[15.4 µM]	nt	5%
Cc1ccc(CSCC(=O)N(C)CC(=O)Nc2ccc(Br)cc2C)cc1	0.0	-5	-0.1%	18%[15.4 µM]	nt	-13%
COc1ccc(/C=C(\C#N)C(=O)N2COCC2(C)C)cc1	1.3	-4	0.4%	6%	-1.0	13%
COc1cc(/C=N/NC(=O)c2cc(-c3ccccc3)nc3ccccc23)ccc1O	1.9	-14	-1.7%	?	-11	-3%
N#Cc1ccc(S(=O)(=O)N2CCCCC2c2cc(C(=O)NCc3ccccc3)no2)cc1 (stereo unspecified)	1.8	14	1.2%	nt	nt	nt
CCCCCCC1C(C#N)=C(N)OC2=C1C(=O)CC(C)(C)C2 (stereo unspecified)	-0.1	23	1.2%	-54%[inhibitor]	-0.3	-9%
COc1cc(C2Nc3ccc4ccccc4c3C3=C2C(=O)CC(C)(C)C3)ccc1OC(C)C(=O)O (stereo unspecified)	0.4	6	3.3%	-35%[inhibitor]	-3.2	-9%
CCN(CC)S(=O)(=O)c1ccc(-c2cn3cc(Cl)ccc3n2)cc1	0.4	13	nt	?	-0.6	-2%
O=C1c2ccccc2C(=O)N1CC(O)COCc1ccccc1 (stereo unspecified)	0.3	-2	-1.5%	-49%[inhibitor]	2.0	-1%
O=C(NCc1ccncc1)C1CCN(S(=O)(=O)c2ccccc2)CC1	0.7	22	-1.2%	?	nt	8%
Cc1ccc(Cl)c2c(N=Nc3ccccc3)c(O)[nH]c12	1.3	9	-2.3%	-5%	?	7%
O=C(NCc1cnn(-c2ccc(F)cc2)c1)C1CCC(=O)N(C2CC2)C1 (stereo unspecified)	1.2	-15	-1.5%	?	nt	6%
CCc1nc2nc(C)c(NS(=O)(=O)c3cccs3)c(=O)n2[nH]1	-0.1	37	nt	-3%	0.0	5%
CN(CCOc1ccccc1)C(=O)c1cc(S(=O)(=O)N2CCCCC2)ccc1Cl	2.7	8	nt	25%[15.4 µM]	nt	-10%
OCCC1CN(C2CCN(c3ccccc3F)CC2)CCN1Cc1ccccc1 (stereo unspecified)	-0.1	?	1.3%	15%	3.3	2%
Cc1cccc(Cn2nnc(C(=O)Nc3cc(C)ccc3C)c2N)c1	-0.8	4	-3.3%	nt	nt	nt
COc1ccc(NS(=O)(=O)c2cc(Cl)ccc2Cl)cc1S(=O)(=O)N1CCCCC1	1.5	-5	nt	-11%[15.4 µM]	2.7	-23%
O=C(COc1ccccc1)Nc1ncccn1	0.4	14	0.7%	?	0.7	0%
CC(Oc1ccccc1)C(=O)Nc1ccc(C(=O)OCc2cc(=O)n3nc(C(C)C)sc3n2)cc1 (stereo unspecified)	1.8	-1	-27%	nt	nt	nt
COc1ccc(OC)c(NC(=O)c2noc3c2CCCC3)c1	1.2	9	-2.1%	nt	nt	nt
CCCc1ccc(C(=O)NNc2cc(Cl)ccc2Cl)cc1	0.3	-4	-0.8%	6%[15.4 µM]	3.4	?
CN(C)S(=O)(=O)NCC1CCCN(Cc2ccc(-c3ccccc3)cc2)C1 (stereo unspecified)	-0.3	-8	-3.6%	-30%	9.5	3%
Cc1ccc(CNS(=O)(=O)c2cc3c(cc2C)N(C)CCO3)cc1	0.8&-1.0	10&-1	0.3%&-6.8%	-16%	-6.7	-1%
Cc1ccc(C2=N/C(=C/N3CCOCC3)C(=O)O2)cc1	0.3	-4	-2.2%	-41%[inhibitor]	-0.3	10%
Cc1cc(NC(=O)CSc2nc3c(c(=O)n(C)c(=O)n3C)n2C(C)C)no1	1.1	-18	1.5%	17%	4.7	6%
COc1cccc(CN2CCN(c3ncccn3)CC2)c1	-0.2	1	1.7%	-31%[inhibitor]	3.5	-5%
Cc1ccc(S(=O)(=O)Oc2ccc(/C=N/N=C3/NC(=O)C(CC(=O)O)S3)cc2)cc1 (stereo unspecified)	0.3	5	nt	?	1.4	0%
COc1ccccc1OCC(=O)Nc1ccc(N2CCOCC2)cc1N1CCOCC1	1.0	2	-2.5%	-29%	nt	2%
Cc1ccc(-c2cc(-c3coc4ccc(Cl)cc4c3=O)c3c(n2)-c2ccccc2OC3)cc1	0.8	26	-0.6%	nt	nt	nt
COc1ccccc1N1CCN(C(=O)c2ccc3c(=O)n(Cc4ccco4)c(=S)[nH]c3c2)CC1	-0.4	9	-0.5%	9%	0.4	-7%

Arranged by formula weight (rising): 3 of the compounds above
SMILES	TRPML1 ag	TRPML1 inh	ClpP mod	gsp ag	Menin-MLL FL inh	gsp antag
Cc1ccc(C2=N/C(=C/N3CCOCC3)C(=O)O2)cc1	0.3	-4	-2.2%	-41%[inhibitor]	-0.3	10%
Cc1ccc(CNS(=O)(=O)c2cc3c(cc2C)N(C)CCO3)cc1	0.8&-1.0	10&-1	0.3%&-6.8%	-16%	-6.7	-1%
Cc1cc(NC(=O)CSc2nc3c(c(=O)n(C)c(=O)n3C)n2C(C)C)no1	1.1	-18	1.5%	17%	4.7	6%

Next structures
SMILES	TRPML1 ag	TRPML1 inh	ClpP mod	gsp ag	Menin-MLL FL inh	gsp antag
COc1ccc2c(c1OC)C(=O)OC2N1C(=O)CC[C@H]1C(=O)NCC1CCCO1 (stereo partly specified)	nt	nt	4.8%	nt	-0.2	-1%
Cn1nccc1C(=O)N1CCN(C23CC4CC(CC(C4)C2)C3)CC1	0.4	7	-0.7%	?	nt	5%
C=CCNc1oc(-c2ccc(OC)cc2)nc1C#N	-0.4	23	42%	-4%	-2.4	6%
Cc1c(C)c(C)c2[nH]c(=S)[nH]c2c1C	-0.6	4	-1.7%	8%[15.4 µM]	3.3	-10%
CN(C)S(=O)(=O)c1ccc(C(=O)NCCN2C(=O)S/C(=C\c3cccnc3)C2=O)cc1	1.4	-1	nt	-7%[15.4 µM]	9.2	nt
Cc1ccc(CSC2=Nc3sccc3C3=NC(=O)CN23)cc1	-0.1	8	-7.5%	?	20	15%
O=C(O)CCCC(=O)Nc1nncs1	1.4	41	1.3%	7%	1.8	7%
CCN(CC)CCCN(C(=O)c1ccc(F)cc1)c1nc(-c2ccc(OC)cc2)cs1	-0.4	20	nt	-26%	0.2	-6%
COCCN1CCN(Cc2nc(C3(c4ccc(C)cc4)CCCC3)no2)CC1	0.1	1	nt	18%	-2.7	3%
Cc1ccc(NC(=O)c2cccc(S(=O)(=O)N(C)C3CCCCC3)c2)nc1	-0.7	4	0.9%	-7%	nt	-14%

Grouped by structure: the entries above with a thiophene ring, fused or not.
SMILES	TRPML1 ag	TRPML1 inh	ClpP mod	gsp ag	Menin-MLL FL inh	gsp antag
COCCN(C(=S)Nc1c(C)cc(C)cc1C)C(C)c1cccs1 (stereo unspecified)	0.0	13	1.4%	26%	-3.6	-15%
CCc1nc2nc(C)c(NS(=O)(=O)c3cccs3)c(=O)n2[nH]1	-0.1	37	nt	-3%	0.0	5%
Cc1ccc(CSC2=Nc3sccc3C3=NC(=O)CN23)cc1	-0.1	8	-7.5%	?	20	15%

Carrying on:
SMILES	TRPML1 ag	TRPML1 inh	ClpP mod	gsp ag	Menin-MLL FL inh	gsp antag
Cc1cccc(C(=O)Nc2ccc(S(=O)(=O)N3CCC(c4nc5ccccc5s4)CC3)cc2)c1	0.8	4	-1.8%	nt	nt	nt
Cc1ccccc1NC(=O)c1ccc(CSc2ncccn2)cc1	0.4	-9	0.6%	0%	2.6	?
N#Cc1cnn2c1nc(N1CCOCC1)c1ccccc12	0.9	-1	-15%	?	1.6	1%
COc1ccc(C)c2sc(N(CCN(C)C)C(=O)c3ccc4ccccc4c3)nc12	-0.8	-17	2.4%	-6%	3.4	25%
CCCn1c(O)c(/C=C2\C=NN=C2c2ccccc2)sc1=S	-0.5	-17	-0.1%	22%	4.3	0%
CC1CCC2C(=O)N(c3ccc(Cc4ccncc4)cc3)C(=O)C2C1 (stereo unspecified)	-0.1	19	nt	3%[15.4 µM]	3.0	-23%
CC1CCN(S(=O)(=O)c2ccc3c(c2)oc(=O)n3CC(=O)N2CCc3ccccc3C2)CC1	-0.9	3	-1.8%	-18%	0.6	11%
CC(C)N(CCc1ccncc1)C(=S)Nc1ccc(F)c(Cl)c1	-0.3	6	nt	0%	5.4	-10%
CC(C)(C)c1ccc(S(=O)(=O)N2CCN(CC(=O)NC(=O)NC3CCCCC3)CC2)cc1	0.3	10	0.8%	7%[15.4 µM]	nt	-23%
COc1ccccc1N1C(=NC(=O)C2CCCCC2)SC2CS(=O)(=O)CC21 (stereo unspecified)	-0.8	6	-0.2%	-3%	0.5	-7%
CCn1c2ccccc2c2nnc(N3CCN(c4cc(C)ccc4C)CC3)nc21	-0.6	28	1.9%	nt	nt	nt
